# Sfp inh: inhibitors of Bacillus subtilis Sfp phosphopantetheinyl transferase; AID 1490; Q9F4F7; 310,000 compounds, 3.5% hits; Potency, µM, for inactives: max response, negative = inhibition, actives largely listed as inhibitors; Biochemical Sfp PPTase activity, qHTS; active = well fitted inhibition curve with a large enough effect; inconclusive = small, poorly fitted or top-dose-only effect, or another doubt; inactive = no such curve, though single readings can be large or run the other way;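 note: the enzyme is Sfp with the accession as filed and its product quenches rhodamine fluorescence; potency is the fitted concentration of half-maximal effect; 0% = enzyme reaction without inhibitor and -100% = no enzyme wells; top concentration of the series not given in the record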
#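 Compounds were incubated with enzyme (final 15 nM) for 15 min at room temperature before substrate addition started the reaction. Fluorescence at 525 nm excitation, 598 nm emission was recorded immediately and after 30 minutes.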
# Menin-MLL FL inh: inhibitors of human menin-MLL interaction, wild-type MLL peptide. 290,000 tested, under 10 active. Fluorescence polarization, fluorescein-MLL peptide displacement from menin. FP activity change, % at 61.4 µM; inconclusive = falling polarisation curve, or a change in total fluorescence; inactive = total fluorescence flat and polarisation flat or rising; no compound was filed as active; the % refers to the polarisation; negative = inhibition;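 note: % of control where 0% means no effect; inhibitors lower the polarisation; unlabelled MLL peptide was the positive control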
# An asterisk follows results filed as active; ? = inconclusive; & = joins results of further samples; [ ] = another dose, or the depositor's remark.
Menin-MLL FL inh | Sfp inh | structure
1.7 | 16% | COc1ccc([C@H]2c3cc(OC)c(OC)cc3C[C@@H](C)[C@@H]2C)cc1OC
4.7[11.7 µM] | -9% | C#CCCCO/N=C1/C[C@@H](O)[C@@H](O)[C@@H]2[C@@H]3C(=O)N(C(C)(C)C)C(=O)[C@H]3CC[C@@H]12
-18 | -7% | CC(=O)Nc1ccc(SCC(c2ccccc2)N2CCN(C)CCC2=O)cc1 (centres undefined)
-5.1 | -1% | CC1(C)OC[C@@H]2O[C@@]3(C(=O)O)OC(C)(C)O[C@@H]3[C@@H]2O1
0.9 | 10% | O=C1NC(=O)C2C3C=CC(C3)C12 (centres undefined)
2.1[11.7 µM] | -6% | CCCCCC(=O)c1cc(CC(C(=O)OC)C(=O)OC)cc2cc(OC)c(OC)cc12
-3.6 | 13% | O=C(c1csnn1)N1CCC[C@@]2(CCN(C(c3ccccc3)c3ccccc3)C2)C1
4.2 | ? | Cc1noc(C)c1-c1cc(NC2CCNCC2)ncn1
0.5[24.8 µM] | -4% | CO/N=C(\C(=O)N[C@@H]1C(=O)N2C(C(=O)O)=C(COC(N)=O)CS[C@@H]12)c1ccco1
-3.6[11.7 µM] | -1% | CCOC(=O)OCC1OC(c2ccccc2)C=CC1OC(=O)OCC (centres undefined)
-0.6 | 37%[activator] | O=C(c1cc(C(F)(F)F)cc(C(F)(F)F)c1)N1CCC2(CC1)CN(Cc1ccccc1)C2
-2.7 | -2% | COc1ccccc1CNc1ncnc2ccc(-c3cccnc3)cc12
-3.7[24.8 µM] | -27% | C=CC1=C(C(=O)O)N2C(=O)[C@@H](NC(=O)/C(=N\OCC(=O)O)c3csc(N)n3)[C@@H]2SC1
0.8 | 4% | C=CCC(Nc1ccc(OC)cc1)C(=O)OCC (centres undefined)
-5.1&-10 | -5%&-14% | Cc1c2oc3c(C)ccc(C(=O)N[C@@H]4C(=O)N[C@H](C(C)C)C(=O)N5CCC[C@H]5C(=O)N(C)CC(=O)N(C)[C@@H](C(C)C)C(=O)O[C@@H]4C)c3nc-2c(C(=O)N[C@@H]2C(=O)N[C@H](C(C)C)C(=O)N3CCC[C@H]3C(=O)N(C)CC(=O)N(C)[C@@H](C(C)C)C(=O)O[C@@H]2C)c(N)c1=O
-0.1&2.1 | 56µM* | Cc1cc(OI)c(C(C)C)cc1-c1cc(C(C)C)c(OI)cc1C
2.9[11.7 µM] | -5% | CC1(C)OC(C(O)(c2cc(F)c(F)c(F)c2)c2cc(F)c(F)c(F)c2)C(C(O)(c2cc(F)c(F)c(F)c2)c2cc(F)c(F)c(F)c2)O1 (centres undefined)
-6.7 | 6% | O=C(NCc1ccccc1)[C@]1(C(F)(F)F)C[C@H](CCCO)CCCO1
0.7 | 9% | COc1ccc(-c2nnc3n2N=C(c2cccc(OC)c2)CS3)cc1
4.3 | 20% | NCC(=O)N[C@@H](CCCN=C(N)N)C(=O)NCC(=O)N[C@@H](CCC(=O)O)C(=O)N[C@@H](CO)C(=O)O
-1.1 | 6% | C=C1C(C2(C)C=CC(=O)C(C)(C)C2CC(=O)OC)CC[C@@]2(C)C(c3ccoc3)OC(=O)C3OC132 (some centres undefined)
-3.4 | 14% | COc1ccc2c(c1OC)OCC(c1ccc(OC)c(OC)c1OC)C2 (centres undefined)
2.5 | -12% | O=C(c1cccc(F)c1)N1CCC2(CC1)CCN(C(c1ccccc1)c1ccccc1)CC2
-2.1 | -1% | CCCCC/C=C\C/C=C\CCCCCCCCCC(N)=O
1.2 | -2% | CCCN(CCc1cccs1)[C@H]1CCc2c(O)cccc2C1
-12 | -64% | NC(=O)c1ccc[n+]([C@@H]2OC(COP(=O)([O-])OP(=O)(O)OCC3OC(n4cnc5c(N)ncnc54)C(OP(=O)(O)O)C3O)C(O)C2O)c1 (some centres undefined)
0.5&-9.5 | -10% | C[N+](C)(C)CCO
-0.5 | 1% | O=S(=O)(NCCc1ccccc1)c1ccccc1Br
0.0 | 14% | CC(C)(C)NCC(O)COc1ccc(NC(=O)NC2CCCCC2)cc1 (centres undefined)
-0.3 | -6% | COCCn1c(=O)c(-c2cc(F)cc(F)c2)nc2cnc(OCc3ccccc3)nc21
-2.2 | -5% | C[N+]12CCCC[C@@H]1CCC(=C(c1cccs1)c1cccs1)C2 (some centres undefined)
5.5 | -16% | CO[C@]1(NC(=O)C(C(=O)O)c2ccc(O)cc2)C(=O)N2C(C(=O)O)=C(CSc3nnnn3C)COC21 (some centres undefined)

# Brought forward from above: 7 entries; new compounds follow.
Menin-MLL FL inh | Sfp inh | structure
-12 | -64% | NC(=O)c1ccc[n+]([C@@H]2OC(COP(=O)([O-])OP(=O)(O)OCC3OC(n4cnc5c(N)ncnc54)C(OP(=O)(O)O)C3O)C(O)C2O)c1 (some centres undefined)
0.5&-9.5 | -10% | C[N+](C)(C)CCO
-0.5 | 1% | O=S(=O)(NCCc1ccccc1)c1ccccc1Br
0.0 | 14% | CC(C)(C)NCC(O)COc1ccc(NC(=O)NC2CCCCC2)cc1 (centres undefined)
-0.3 | -6% | COCCn1c(=O)c(-c2cc(F)cc(F)c2)nc2cnc(OCc3ccccc3)nc21
-2.2 | -5% | C[N+]12CCCC[C@@H]1CCC(=C(c1cccs1)c1cccs1)C2 (some centres undefined)
5.5 | -16% | CO[C@]1(NC(=O)C(C(=O)O)c2ccc(O)cc2)C(=O)N2C(C(=O)O)=C(CSc3nnnn3C)COC21 (some centres undefined)
0.3 | 1% | CN(C)c1ncnc2ccc(-c3cccnc3)cc12
-4.7 | 10% | COC(=O)[C@@H]1C[C@H]1[C@@H](NC(=O)c1cccnc1)c1ccccc1
? | 5%&10% | COc1cccc([C@@H]2Oc3ccc(Br)cc3C(=O)[C@H]2O)c1
-0.5 | -28% | CN(Cc1ccco1)c1ncnc2ccc(-c3cccnc3)cc12
0.0[11.7 µM] | 15% | COC(=O)C/C=C\[C@@H](C)[C@@H]1C=C[C@H](OC(C)=O)[C@H](COC(C)=O)O1
0.4 | -9% | NC(=O)[C@@H]1CCCN1
0.0 | 11% | CN1CCC(OC(=O)C(Oc2ccc(Cl)cc2)Oc2ccc(Cl)cc2)CC1
0.3 | 8% | CCOC(=O)CNC(=O)O[C@H]1C(=O)c2ccc(OC)cc2O[C@@H]1c1ccc2c(c1)OCO2
3.7 | -26% | c1csc(CNc2ncncc2-c2ccc3c(c2)OCO3)c1
-1.8 | -4% | CCC#CCOCC(=S)Nc1ccccc1
1.8 | -3% | CCc1c2c(nc3cccc(C(C)C)c13)-c1cccc(=O)n1C2
-2.6 | 4% | CC[C@H](C)[C@H](NC(=O)[C@H](CO)NC(=O)[C@H](C)NC(=O)[C@H](C)NC(=O)[C@H](CCC(N)=O)NC(=O)[C@H](CCCCN)NC(=O)[C@H](CCCN=C(N)N)NC(=O)[C@@H](N)CS)C(=O)N[C@@H](CCCCN)C(=O)N[C@H](C(=O)N[C@@H](C)C(=O)N[C@H](C(=O)N[C@@H](CO)C(=O)O)C(C)C)C(C)C
0.2 | 21% | FC(F)(F)C(F)(F)C(F)(F)C(F)(F)C(F)(F)C(F)(F)C(F)(F)C(F)(F)Br
0.3[11.7 µM] | -19% | COC(=O)[C@@H]1CC[C@H](C)[C@@H](c2ccc(C)cc2)N1C(=O)c1ccc(/C=N\O[C@@H](C)CN2CCCc3nc(C)c(C)cc32)cc1
6.9 | -26% | Cc1cnc(CNc2ncnc3ccc(-c4ccoc4)cc23)cn1
14 | 23% | CCCC[C@@H]1C[C@H]1C(NC(=O)c1ccco1)c1ccccc1C(F)(F)F (some centres undefined)
1.7 | ? | Cc1c(S(=O)(=O)O)oc2c1C(=O)C(=O)c1c-2ccc2c1CCCC2(C)C
-1.7 | ? | CCC1CC=CC2C1C(=O)N(Cc1ccccc1)C2c1ccc(OC)c(Cl)c1 (centres undefined)
? | 7% | Cc1cc2nc3c(=O)[nH]c(=O)nc-3n(C)c2cc1C=O
-2.7 | -20% | CN1CCN(c2ccnc(-c3ccccc3C(F)(F)F)n2)CC1
1.2 | 9% | CCC(=O)O[C@]1(C(=O)CCl)[C@@H](C)CC2C3C[C@H](F)C4=CC(=O)C=CC4(C)[C@@]3(F)C(O)CC21C (some centres undefined)
0.7 | 8% | COC(=O)[C@@H]1CC2=CC(=O)CC[C@]2(C)[C@@]23O[C@@H]2C[C@@]2(C)[C@H](CC[C@@]24CCC(=O)O4)[C@@H]13
-2.9 | 10% | CO[C@H]1OC[C@@]2(C)[C@@H]3C4=C(CN2C(=O)OC(C)(C)C)[C@H](C)[C@H](CO)[C@H](CO)[C@H]4CC[C@H]13
3.3[24.8 µM] | ? | Clc1ccc(CC[C@H](Cn2ccnc2)Sc2c(Cl)cccc2Cl)cc1
2.5 | ? | O=C(O)[C@H]1O[C@@H](Oc2ccc3ccc(=O)oc3c2)[C@H](O)[C@@H](O)[C@@H]1O
-0.5 | -21% | C#CCCCCCCCCCCCc1ccco1
-1.2 | -12% | COc1ccc(/C(=C\C(=O)O)c2nccc3cc(OC)c(OC)cc23)cc1OC
-1.9 | 17% | FC(F)(F)c1ccccc1-c1nc(-n2ccnc2)c2ccccc2n1
-3.7 | 23% | Cc1nc2cnc(N3CCOCC3)nc2n(CCC#N)c1=O
-2.3 | -11% | COc1cc2c(c(OC)c1OC)-c1c(cc3c(c1OC)OCO3)CC(C)C(C)C2 (centres undefined)
6.4 | 21% | O=C(OCc1ccccc1)c1ccc(O)cc1
-0.3 | -5% | CS(=O)(=O)Nc1cccc(-c2cncnc2-n2ccnc2)c1

# 3 compounds already listed, ordered by molecular weight, falling.
Menin-MLL FL inh | Sfp inh | structure
0.3 | 8% | CCOC(=O)CNC(=O)O[C@H]1C(=O)c2ccc(OC)cc2O[C@@H]1c1ccc2c(c1)OCO2
0.7 | 9% | COc1ccc(-c2nnc3n2N=C(c2cccc(OC)c2)CS3)cc1
0.5&-9.5 | -10% | C[N+](C)(C)CCO

# Next part
Menin-MLL FL inh | Sfp inh | structure
? | -27% | CO[C@@]1(NC(=O)Cc2cccs2)C(=O)N2C(C(=O)O)=C(COC(N)=O)CSC21 (some centres undefined)
-1.1 | 28% | O=C(c1cnccn1)N1CCC2(CC1)CCN(c1ccccc1)CC2
-2.0 | 19% | CC1CC(OC(=O)C(O)c2ccccc2)CC(C)(C)C1 (centres undefined)
0.1[11.7 µM] | 9% | CC(C)=CCC/C(C)=C/CO/N=C1/[C@H]2O[C@@H]2[C@@H](O)[C@H]2[C@H]1CCn1c(=O)n(-c3ccccc3)c(=O)n12
0.0 | -15% | CC(=O)OCOC(=O)CNc1ccccc1OCCOc1ccccc1NCC(=O)OCOC(C)=O
-2.1 | -2% | CC(C)(C)C(=O)Oc1ccc(S(=O)(=O)Nc2ccccc2C(=O)NCC(=O)O)cc1
-6.4 | 4% | C/C(=C\CO)CCO
5.6 | 14% | O=C1CCN(CCc2ccccc2)CCN1C(CSc1ccc(Br)cc1)c1ccccc1 (centres undefined)
1.2 | 12% | COC(=O)C(C(=O)OC)[C@@H](NC=O)c1ccccc1
-7.4 | 12% | COc1ccc(Oc2ncc3nc(C)c(=O)n(CCc4ccccc4)c3n2)cc1
2.5[94.6 µM] | 2% | Cc1ccc(C2CC(=O)Oc3ccc(C(C)(C)C)cc32)cc1 (centres undefined)
12 | ? | O=c1c(-c2cc(F)cc(F)c2)nc2cncnc2n1Cc1ccccc1Cl
-3.8 | -20% | CC(C)C[C@@H](CC(=O)N[C@@H](CCC(=O)O)CC(=O)O)NC(=O)[C@@H]1CCCC[C@H]1NC(=O)C[C@@H](NC(=O)C[C@H](Cc1c[nH]c2ccccc12)NC(=O)[C@@H]1CNCC[C@H]1N)C(C)C
1.5 | 2% | COCCn1c(=O)c(-c2ccc(F)cc2)nc2cncnc21
3.1 | -14% | O=C(c1cnccn1)N1CCC2(CC1)CN(c1ccncc1)C2
36[activator] | 45µM* | Cc1ccc(S(=O)(=O)/C=C\C#N)cc1
8.6 | -2% | CC1(C)S[C@@H]2[C@H](NC(=O)[C@H](NC(=O)N3CCN(S(C)(=O)=O)C3=O)c3ccccc3)C(=O)N2[C@H]1C(=O)O
-0.4 | 10% | C/C=C/C1=Cc2ccccc2C(C(C(=O)OC)C(=O)OC)N1C(=O)OC (centres undefined)
2.9 | 14% | CCOC(=O)N1CCN([N+]([O-])=NOc2cc(O/N=[N+](\[O-])N(CC)CC)c([N+](=O)[O-])cc2[N+](=O)[O-])CC1
-2.5 | 13% | CC[C@H](C)[C@H](NC(=O)CNC(=O)[C@H](CCCNC(=N)N)NC(=O)CNC(=O)[C@@H](NC(=O)[C@H](Cc1ccc(O)cc1)NC(=O)[C@H](Cc1c[nH]c2ccccc12)NC(=O)[C@H](C)NC(=O)[C@@H]1CCCN1C(=O)[C@H](CC(N)=O)NC(=O)[C@@H](NC(=O)[C@H](CC(=O)O)NC(=O)[C@@H]1CCCN1C(=O)[C@@H](N)[C@@H](C)O)[C@@H](C)CC)[C@@H](C)O)C(=O)N[C@@H](CCCNC(=N)N)C(=O)N1CCC[C@H]1C(=O)N[C@H](C(=O)NCC(=O)N[C@@H](CCCNC(=N)N)C(=O)N[C@@H](Cc1ccccc1)C(N)=O)C(C)C
2.1&0.8 | -2%&-10% | COc1ccc(-c2nc(-c3ccccc3)c(NC(C)(C)C)o2)cc1

# Source: PubChem (National Center for Advancing Translational Sciences (NCATS))

# Some of the compounds tested; the hit share may differ from the screen's.
